From PubChem
A1 inh – inhibitors of the anti-apoptotic protein A1, read as caspase activation; MEF A1-2A-BIM cells, Caspase-Glo 3/7 luminescence, 3 h; percent of clofoctol response, vehicle zero; caspase activation, % (concentration not given with the values); actives 0.066% (n = 330,000);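 active = over half of replicate activation scores above 10%, or exactly half above 10 with the replicate mean above 10; inconclusive = replicate mean below 10 yet half the replicates above 10; inactive = over half of replicates below 10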;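 note: wells of about 30 µL received 50 nL stock; many hits fall short of the cut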
Beta apoptosis – blocks beta cell apoptosis | actives 0.8% (n = 300,000) | INS-1E cytokine-induced death, ATP luminescence, 48 h; percent of positive-control rescue, neutral wells zero | protection from apoptosis, % (no concentration beside the values);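 active = all replicates at 75% or more, or half of them and the mean; inconclusive = half reach 75% but not the mean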;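 note: 0% = cytokine-treated negative control wells and 100% = positive control rescue; higher means more ATP so stronger rescue from cytokine killing; wells of about 40 µL received 100 nL stock; the first replicate is given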
ALR inh – inhibitors of human sulfhydryl oxidase ALR; actives 3.8% (n = 290,000); inhibition, % (concentration not given with the values); purified ALR, DTT oxidation, H2O2 HRP-luminol luminescence; P55789;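 active = mean and each replicate at 75% or more; inconclusive = only one of the two met; inactive = neither met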;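 note: stock transfer was 7.5 nL into about 7.5 µL; 0% = neutral wells and 100% = wells with inactivated enzyme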
Target sequence (P55789 whole entry, looked up): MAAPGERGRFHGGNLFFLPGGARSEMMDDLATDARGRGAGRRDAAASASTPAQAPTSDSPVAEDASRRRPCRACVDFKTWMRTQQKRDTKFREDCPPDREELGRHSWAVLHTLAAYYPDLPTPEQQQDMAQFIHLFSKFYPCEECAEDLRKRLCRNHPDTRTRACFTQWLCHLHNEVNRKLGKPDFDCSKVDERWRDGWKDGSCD
rRNA inh HTS – inhibitors of bacterial rRNA selective over humanized ribosomes; E. coli WT GFP vs humanized-ribosome RFP mutants, fluorescence, 24 h; stronger effect = lower value; DMSO median 0, no signal -100; GFP signal change (wild-type ribosome), % (test concentration not listed); actives 1.6% (n = 350,000); AID 720706;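 active = significant combined selectivity score with lowered wild-type GFP, culture density cut under 30%, mutant RFP and density less affected; inactive = any of these conditions unmet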; note: one replicate is shown; some compounds called inactive have numbers as strong as hits
Calb FLC – affects C. albicans growth with fluconazole. growth inhibition, % (concentration not given with the values). C. albicans CaCi-2 (fluconazole-resistant clinical isolate) + fluconazole, Alamar Blue growth, 48 h. actives 0.57% (n = 300,000);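 active = most replicates above 75%; inconclusive = exactly half above 75%; inactive = most below 75%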;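 note: all wells also contain fluconazole at 8 µg/ml as a sub-toxic cotreatment; 0% = median of DMSO wells and 100% = median of geldanamycin control wells; wells of about 8 µL received 7.5 nL stock; the first replicate is given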
B2AR ag – activates human beta-2 adrenergic receptor causing internalization. response, % (test concentration not listed). P07550. Am2.2-beta2AR cells, FAP receptor internalization, flow cytometry; reference of the scale not given here. AID 504454. actives 0.43% (n = 340,000);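 active = response above a set limit, near 3 SD of response in nonfluorescent compounds, cut at about 42% in these data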;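 note: stock transfer was 100 nL into about 11 µL; a reference agonist was the positive control; negative values mostly stem from fluorescent compounds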
Target sequence (P07550 whole entry, looked up): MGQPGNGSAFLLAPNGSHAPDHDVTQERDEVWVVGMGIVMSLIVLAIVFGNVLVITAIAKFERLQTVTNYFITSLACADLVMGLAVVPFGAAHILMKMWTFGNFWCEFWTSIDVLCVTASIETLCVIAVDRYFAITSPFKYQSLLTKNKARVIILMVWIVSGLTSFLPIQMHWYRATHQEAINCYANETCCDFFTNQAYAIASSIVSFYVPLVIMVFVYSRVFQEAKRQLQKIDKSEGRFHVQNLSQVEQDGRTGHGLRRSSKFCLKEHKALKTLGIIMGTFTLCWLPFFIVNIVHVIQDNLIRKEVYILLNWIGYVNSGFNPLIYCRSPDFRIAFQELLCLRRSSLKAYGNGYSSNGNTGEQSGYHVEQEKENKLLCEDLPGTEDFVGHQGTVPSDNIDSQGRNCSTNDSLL
LANA-H2A inh – blocks KSHV LANA binding to histone H2A/H2B. Q9QR71. cell-free LANA-H2A/H2B peptide, fluorescence polarization. inhibition, % (test concentration not listed). actives 0.6% (n = 320,000). AID 2629; in the data active = inhibition mostly above about 10%, no sharp cut-off; inactive = mostly below about 6.7%;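 note: stock transfer was 7.5 nL into about 10 µL; 0% = median of vehicle wells and 100% = median of positive control wells; one replicate is shown; the record names a cut of 25% in any replicate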
T cruzi repl – blocks replication of Trypanosoma cruzi. T. cruzi beta-gal in NIH3T3, luminescence, 90 h. inhibition, % (test concentration not listed). actives 1.4% (n = 300,000). AID 1885;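 active = mean inhibition across valid replicates above about 55%, limit read from the data; inconclusive = mean below that limit but half or more replicates reach it; inactive = mean below it, under half of replicates reach it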;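 note: signal also drops with host cell toxicity which is not excluded here; 0% = plate median of DMSO wells and 100% = zero luminescence signal; higher percent means less beta-gal luminescence so fewer parasites; stock transfer was 50 nL into about 50 µL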
rRNA inh HTS OD600 – recorded beside rRNA inh HTS, whose call it bears; OD600 change, %; measured here: OD600 growth;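 optical density of the mix in the first replicate; 0 = DMSO median and -100 = no signal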
rRNA inh HTS RFP – also measured in rRNA inh HTS; calls as there; RFP signal change, %; measured here: RFP humanized mutant strains;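 first replicate; 0 = DMSO median and -100 = no signal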
Active calls of the source: *; ? = inconclusive; nt = no result given. The list is partial, so the mix of outcomes need not match the whole.

Value order – A1 inh, Beta apoptosis, ALR inh, rRNA inh HTS, rRNA inh HTS OD600, rRNA inh HTS RFP, Calb FLC, B2AR ag, LANA-H2A inh, T cruzi repl
CCCC1(C(=O)OC)NC(c2cccc(F)c2)C2C(=O)N(CC)C(=O)C21 (stereo not drawn)
  0.0, -4, nt, nt, nt, nt, 4, 6, 1.7, -12
Cc1cccc(C)c1Nc1nnc(SCc2cn3cccc(C)c3n2)s1
  0.0, 3, -4, -34, -46, -9.0, nt, -1, -0.3, 0
O=C(Nc1ccc(S(=O)(=O)Nc2cnc3ccccc3n2)cc1)c1ccc(Cl)cc1Cl
  -0.2, 2, 45, 12, 2, 2.7, -7, 7, 1.9, 5
CN1c2ccccc2N(C)C1c1c(O)ccc2ccccc12
  1.4, 3, 4, nt, nt, nt, 14, -6, 11, -7
COCCNC(=O)c1onc(CSc2ccc(Cl)cc2)c1C(=O)O
  0.5, -1, -6, -2, 3, -2.7, 0, -4, -2.0, -18
O=C(CSc1nnc(CNc2ccc(F)cc2)o1)N1CCN(C(=O)c2ccco2)CC1
  1.6, nt, 1, nt, nt, nt, 6, -11, -5.3, -8
COC(=O)c1sccc1NC(=O)c1ccc(Cl)s1
  -0.5, -3, -1, 22, 20, -4.2, -7, -11, -0.1, 4
CC(Oc1ccc2c(-c3ccccc3)cc(=O)oc2c1)C(=O)O (stereo not drawn)
  -0.6, 2, -3, nt, nt, nt, 2, -1, 3.1, -13
Cc1cccc(C(=O)NNC(=O)C2CCCO2)c1 (stereo not drawn)
  0.6, 4, nt, nt, nt, nt, -17, -5, -1.1, -8
COCCn1c(N)c(Sc2ccc([N+](=O)[O-])cc2)c(=O)[nH]c1=O
  -0.3, -7, -7, 3, 2, -1.7, 5, 4, -2.7, -1
CCn1c(=S)[nH]c2c(c1=O)C(C)(C)Cc1ccccc1-2
  nt, nt, nt, 5, -3, -4.6, -11, -2, nt, 10
Cc1cccc(OCC(=O)NC(Cc2c[nH]c3ccccc23)C(=O)O)c1C (stereo not drawn)
  -0.1, -1, -5, 3, -4, 0.2, 2, -7, 1.7, -33
O=C(CSc1n[nH]c(=O)n1C1CC1)Nc1cc(Cl)ccc1Oc1ccccc1
  -0.1, 11, -10, nt, nt, nt, 28, 11, 3.7, -12
Cc1c(C(=O)NC2CCCc3ccccc32)oc2ccc(S(=O)(=O)N3CCCC3)cc12 (stereo not drawn)
  0.8, nt, -10, nt, nt, nt, -5, 3, -1.6, 11
Cc1ccc(C(=O)NN=C2CCCC2)cc1C
  1.2, nt, 2, -1, 12, -1.9, -4, -5, -2.9, -3
O=C(COc1ccc(S(=O)(=O)NC2CCCCC2)cc1)NCc1cccnc1
  1.1, -3, -6, 5, 0, -3.1, 7, 1, 0.0, 5
O=C(CC1Nc2ccccc2NC1=O)NCCCN1CCCCCC1 (stereo not drawn)
  -0.3, 4, 2, nt, nt, nt, 5, -3, 0.7, 10
Cc1ccc(C(=O)C(C)OC(=O)CNS(=O)(=O)c2ccc(C)cc2)cc1 (stereo not drawn)
  -0.9, -4, nt, 4, 5, -2.6, nt, -5, 0.5, nt
COc1ccc(OC)c(/C=N/NC(=O)C(=O)N/N=C/c2cc(OC)ccc2OC)c1
  1.4, -1, nt, 20, 16, 2.7, -2, 0, 2.4, -7
Cn1nccc1NC(=O)Nc1cccc(Cl)c1
  0.1, 1, 8, nt, nt, nt, 3, 3, 3.9, -7
COC(=O)C1=C(C)N(Cc2ccco2)C(=O)N[C@H]1c1ccc(Br)cc1
  -0.2, -6, nt, nt, nt, nt, 12, nt, 2.7, 6
O=C(c1cc(S(=O)(=O)NCc2ccco2)ccc1Br)N1CCOCC1
  0.2, -3, 1, nt, nt, nt, nt, -16, -6.6, nt
CC(C)N(Cc1ccccc1)C(=O)CN1C(=O)NC2(CCCc3ccccc32)C1=O (stereo not drawn)
  0.7, 10, -2, -5, -6, 1.2, -13, 2, 3.0, -1
Cc1ccc(S(=O)(=O)Nc2nc3ccccc3nc2Nc2cccc(S(=O)(=O)N3CCCC3)c2)cc1
  -0.2, 31, nt, 11, 3, 1.8, 0, -21, 8.8, -8
COc1ccc(NC(=O)CN(c2cccc(C(F)(F)F)c2)S(C)(=O)=O)cc1OC
  0.2, -7, -23, nt, nt, nt, 32, -1, 1.6, -20
CN(Cc1c(F)cccc1Cl)C(=O)C1CC(=O)N(CCc2ccccc2)C1 (stereo not drawn)
  0.3, 2, 3, -18, -26, -1.4, -1, 4, 0.6, 0
COc1ccc(OC)c(NC(=O)CCNS(=O)(=O)c2cccs2)c1
  0.6, -4, -34, nt, nt, nt, 5, 5, 0.4, -9
CC(C)(C)n1ncc2c(=O)n(Cc3ccc(Cl)cc3)cnc21
  -1.0, 6, -18, 1, 2, -4.6, 11, 1, -1.2, 10
O=[N+]([O-])c1cccc(CNC2CCCCCC2)c1
  0.0, -8, -1, 6, 3, -1.0, -3, 5, -0.9, 6
O=C(NCc1cccs1)C(NS(=O)(=O)c1cccc2nsnc12)c1ccccc1 (stereo not drawn)
  -0.3, nt, -10, nt, nt, nt, 3, 6, -7.1, 12

Three entries from above, ordered by the value under rRNA inh HTS RFP, largest number first:
mol | ALR inh | rRNA inh HTS | rRNA inh HTS OD600 | rRNA inh HTS RFP | B2AR ag | LANA-H2A inh
Cc1ccc(S(=O)(=O)Nc2nc3ccccc3nc2Nc2cccc(S(=O)(=O)N3CCCC3)c2)cc1 | nt | 11 | 3 | 1.8 | -21 | 8.8
CC(C)N(Cc1ccccc1)C(=O)CN1C(=O)NC2(CCCc3ccccc32)C1=O (stereo not drawn) | -2 | -5 | -6 | 1.2 | 2 | 3.0
O=[N+]([O-])c1cccc(CNC2CCCCCC2)c1 | -1 | 6 | 3 | -1.0 | 5 | -0.9

(cont.)
Value order – A1 inh, Beta apoptosis, ALR inh, rRNA inh HTS, rRNA inh HTS OD600, rRNA inh HTS RFP, Calb FLC, B2AR ag, LANA-H2A inh, T cruzi repl
CCCCN(C(=O)CSc1nnc(-c2ccccc2)n1C)c1c(N)n(Cc2ccccc2)c(=O)[nH]c1=O
  0.2, -6, nt, nt, nt, nt, 1, -21, 0.5, ?
CC(C)CNC(=O)NC(=O)COC(=O)COc1ccc(Cl)cc1Cl
  -0.4, -5, -4, -3, 8, -1.2, -2, 0, -4.7, 3
Clc1ccc2c(c1)C1OCCC1C(c1ccco1)N2 (stereo not drawn)
  -0.5, nt, -12, nt, nt, nt, -4, 4, 5.6, -5
CC1S/C(=N/N=C2CCC(C(C)(C)C)CC2)NC1=O (stereo not drawn)
  1.0, 1, 4, nt, nt, nt, 19, -2, 4.4, 13
Cc1cccc2c(C(=O)O)c3c(nc12)CCCCC3
  2.0, -1, -6, nt, nt, nt, -2, 2, 2.0, -9
CCc1c(C)nc2c(C#N)c[nH]n2c1=O
  0.3, 0, 98*, 0, -13, 0.1, -2, 10, 4.7, -30
CCN1CCc2c(sc(NC(=O)c3ccc(S(=O)(=O)N(C)c4ccccc4)cc3)c2C(=O)NC)C1
  -0.2, 6, -5, nt, nt, nt, -1, -146, -10, 29
Cc1cccc(C(=O)N[C@H](C(=O)Nc2cc(S(=O)(=O)N3CCCCC3)ccc2C)C(C)C)c1
  0.5, -6, -4, 29, 18, 3.0, 17, -6, 2.9, -15
CC(=O)NC1=NN(c2ccccc2)C(=O)C1
  -0.9, -5, nt, nt, nt, nt, -13, 6, -3.7, -5
O=C(O)/C=C\C(=O)Nc1ccc(Oc2ccccc2)cc1
  -0.2, -6, 33, nt, nt, nt, 7, -8, -1.1, -1
Cc1cccc(C)c1OCCCCc1c(C)n[nH]c1C
  1.1, -2, -54, nt, nt, nt, 4, 5, -0.2, 12
COc1ccc2sc3ccccc3c(=O)c2c1OC
  -2.6, -11, -1, nt, nt, nt, -5, 1, -0.8, 2
Cc1ccc(-c2nn3c(C)nnc3s2)cc1NC(=O)c1cccs1
  1.2, 1, -2, nt, nt, nt, 0, -14, -10, -3
COc1ccc(CCNC(=O)C2CCN(C(=O)c3ccc(F)cc3)CC2)cc1OC
  0.5, -2, -44, 13, 6, 6.9, 6, -3, 2.8, -6
NS(=O)(=O)c1ccc(NC(=O)/C=C/c2cccc(Cl)c2)cc1
  0.7, 1, -2, -4, -1, -2.7, 9, 4, 0.0, 1
COCCNC(=O)CCC1CCN(Cc2cccc(Oc3ccccc3)c2)CC1
  -6.0, -1, 1, 6, 6, -1.0, -6, 5, -15, 39
COc1ccc(-n2c(COc3cccc4ccccc34)nnc2SC(C)C(=O)O)cc1 (stereo not drawn)
  -0.1, -2, nt, -24, -34, -2.2, -11, -5, -2.4, -14
CCn1c(C)nc2cc(NC(=O)Nc3cccc(C(C)=O)c3)ccc21
  -1.0, -3, 2, -10, -2, -2.9, 22, -3, -2.3, -7
CCN(CC)C(=O)c1ccccc1NS(=O)(=O)c1ccc(C)cc1
  -0.4, -3, -6, nt, nt, nt, 11, -2, 9.8, -22
Cc1nnc(NC(=O)CCCOc2ccccc2)s1
  0.1, 1, -1, nt, nt, nt, -3, 1, 4.7, 2
Cc1cc(NC(=O)CSc2nnc(-c3ccco3)n2N)no1
  -0.8, -3, -1, 6, 14, -3.5, nt, -1, -2.3, nt
CC1=C(C(=O)Nc2ccccc2)C(c2ccco2)C(C#N)=C(SCC(=O)Nc2cccc(C)c2C)N1 (stereo not drawn)
  -0.8, 53, -2, nt, nt, nt, -11, 1, -0.7, 18
CC(C)(CC(=O)O)CC(=O)NNc1ncccc1C#N
  -0.1, 1, -7, nt, nt, nt, 0, 0, 1.3, -8
CC(/C=C/c1ccco1)=N/NC(=O)CNc1ccccc1C
  1.2, 1, 6, 2, 3, 0.8, -27, 3, 2.6, 7
CN1CCN(C(=O)CSc2cc(=O)n(C)c3ccccc23)CC1
  0.0, -5, -9, 10, 5, -1.8, 29, 2, 0.1, 5
Cc1ccc(N(C(=O)CNC(=O)c2ccco2)C(C(=O)NC2CCCC2)c2cccnc2)cc1C (stereo not drawn)
  -0.4, -26, -17, nt, nt, nt, 1, -11, -3.6, -9
O=C(O)c1ccc(Oc2cccc([N+](=O)[O-])c2)cc1C(=O)O
  1.8, -7, -2, nt, nt, nt, 16, -3, 1.6, -12
O=C(C/C=N/OCc1ccc(Cl)cc1)c1cnc(-c2ccccc2)s1
  0.5, -11, -3, nt, nt, nt, -1, 4, -1.7, 6
CC(C)(C)OC(=O)N1CCC(C(=O)N[C@@H](Cc2ccccc2)C(=O)O)(c2ccccc2)CC1
  0.7, -4, 3, nt, nt, nt, -10, -3, 2.7, 1
Cn1nc(C(C)(C)C)c([N+](=O)[O-])c1C(=O)Nc1ccc(Br)cc1
  -0.5, 12, 1, -26*, -11*, 3.1*, -51, 1, 0.3, 0
CCc1nc2ccccc2n1CC(O)COc1ccc(NC(C)=O)cc1 (stereo not drawn)
  -0.7, -2, -1, nt, nt, nt, -14, -3, 6.2, -15
Cc1ccc2[nH]c(=O)c(N3CCOCC3)c(-c3ccccc3)c2c1
  0.1, -2, 35, nt, nt, nt, 16, 5, -3.4, 3
